# Six1-Eya2 inh = inhibitors of human Six1/Eya2 interaction. AID 651725. AlphaScreen GST-Six1/His-Eya2 binding, biochemical; stronger effect = lower value; control for the full effect not named in the record. activity change, % (no concentration beside the values). Q15475+O00167. actives 0.56% (n = 360,000); in the data active = activity change below about -65%; inconclusive = about -30% to -65%; inactive = above about -30%; further: on the % scale 0 is the no-effect control and ±100 the full control effect; compound concentration not given in the record
#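 AlphaScreen with GST-Six1 and His-Eya2 (5X mix: 250 nM and 500 nM), glutathione donor and nickel acceptor beads; buffer 50 mM Tris pH 8.0, 300 mM NaCl, 1 mM TCEP; 1 h at 37 C in the dark.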
# PINK1 modulator = modulators of PINK1 expression. Potency, µM (doses to about 76.6 µM), for the others: at the highest dose activation (PINK1 increase), most hits filed as activators. PINK1 immunofluorescence, high-content cytometry, 24 h. actives 0.2% (n = 410,000); active = well fitted activation curve with a large enough effect; inconclusive = small, poorly fitted or top-dose-only effect; inactive = flat fitted curve, though single readings scatter; cell line not stated here;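 further: potency means the concentration at half of the fitted maximal effect; % of control where 0% means no effect; nearly all actives have a fitted effect of over 65% in size; a mitochondrial uncoupler was the plate control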
#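 Stable cell line treated 24 h with compounds at 5 concentrations (CCCP controls), then fixed and immunostained for PINK1 plus nuclear and cell stains; PINK1 immunofluorescence quantified by laser-scanning microplate cytometry.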
# D2 agonist = agonists of human D2 dopamine receptor (beta-arrestin). P14416. DiscoveRx PathHunter D2 beta-arrestin, luminescence, 90 min; 100% = 57 uM dopamine signal. activation, % (test concentration not listed). actives 0.084% (n = 360,000). AID 624465; in the data active = activation above about 40%; inconclusive = about 15% to 40%; inactive = below about 15%; further: compound concentration not given in the record; the text of the record calls up to 30% inactive
# Target sequence (P14416 whole entry, looked up): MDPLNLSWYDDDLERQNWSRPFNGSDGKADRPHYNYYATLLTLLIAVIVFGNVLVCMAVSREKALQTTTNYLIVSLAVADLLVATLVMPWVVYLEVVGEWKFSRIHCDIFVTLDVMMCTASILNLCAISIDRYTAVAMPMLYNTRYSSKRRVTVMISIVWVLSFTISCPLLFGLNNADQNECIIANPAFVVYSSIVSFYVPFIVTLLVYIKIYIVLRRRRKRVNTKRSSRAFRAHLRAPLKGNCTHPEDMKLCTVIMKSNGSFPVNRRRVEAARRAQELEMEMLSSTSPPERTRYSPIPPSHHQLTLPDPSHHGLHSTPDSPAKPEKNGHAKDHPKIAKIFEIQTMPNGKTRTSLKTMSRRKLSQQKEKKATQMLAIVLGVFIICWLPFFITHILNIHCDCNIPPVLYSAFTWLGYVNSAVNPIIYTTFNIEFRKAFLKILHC
#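 Agonist mode: compounds alone added to overnight-plated D2 PathHunter cells for 90 min at 37 C, with 57 uM final dopamine (EC100) defining full response. Beta-arrestin recruitment detected by chemiluminescent reagent, read after 1 h at ambient temperature.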
# D2 potentiator = human D2 receptor positive allosteric modulation. P14416. DiscoveRx D2 beta-arrestin cells, luminescence, 90 min; 100% = 57 uM dopamine signal. potentiation, % (no concentration beside the values). actives 0.23% (n = 360,000). AID 624464; active = potentiation of 50% or more; inconclusive = 30% to 50%; inactive = 30% or less;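 further: compound concentration not given in the record; tested on top of an EC20 dose of dopamine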
#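 PathHunter D2 cells, attached overnight at 37 deg C, received compound in DMSO plus dopamine at EC20 (50 nM final) for 90 min at 37 deg C. Beta-arrestin recruitment was read as luminescence after 1 h with detection reagent at ambient temperature.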
# TRPML1 inh = inhibitors of human TRPML1 channel. activity change, negative = inhibition, % (test concentration not listed). TRPML1-inducible cells, Ca2+ dye fluorescence, FDSS; stronger effect = lower value; inhibition of EC80 agonist-evoked calcium signal. Q9GZU1. actives 0.02% (n = 390,000); in the data active means activity change below about -50%; inconclusive means about -30% to -50%; inactive means above about -30%;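 further: stimulus is agonist 54-4 at its EC80 concentration; on the % scale 0 is the no-effect control and ±100 the full control effect; compound concentration not given in the record; the text of the record puts the active cut at -80%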
# Target sequence (Q9GZU1 whole entry, looked up): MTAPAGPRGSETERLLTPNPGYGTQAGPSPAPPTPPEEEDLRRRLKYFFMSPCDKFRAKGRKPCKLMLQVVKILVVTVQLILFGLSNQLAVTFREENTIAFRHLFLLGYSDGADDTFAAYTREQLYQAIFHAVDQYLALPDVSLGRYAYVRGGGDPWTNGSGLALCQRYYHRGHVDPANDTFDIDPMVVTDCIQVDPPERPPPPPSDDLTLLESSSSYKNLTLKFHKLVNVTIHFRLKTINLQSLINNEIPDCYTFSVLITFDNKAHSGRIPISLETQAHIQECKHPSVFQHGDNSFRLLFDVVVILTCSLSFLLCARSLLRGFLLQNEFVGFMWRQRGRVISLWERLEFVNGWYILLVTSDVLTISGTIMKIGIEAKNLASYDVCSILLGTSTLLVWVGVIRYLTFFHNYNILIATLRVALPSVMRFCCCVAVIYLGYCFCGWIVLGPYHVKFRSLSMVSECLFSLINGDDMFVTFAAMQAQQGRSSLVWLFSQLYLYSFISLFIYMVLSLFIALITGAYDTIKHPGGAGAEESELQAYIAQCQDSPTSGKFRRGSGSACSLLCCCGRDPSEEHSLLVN
#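 Tet-induced TRPML1-DL cells loaded with Ca8 no-wash calcium dye were read kinetically on FDSS. Compound addition was followed by EC80 agonist 54-4 (4 uM final); inhibition was read over 110 s.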
# TRPML1 agonist = human mucolipin-1 channel agonism; Q9GZU1; TRPML1-expressing cells, Ca2+ dye fluorescence, FDSS; host cell line not named in the record; reference of the full effect not given here; activation, % (no concentration beside the values); actives 0.12% (n = 410,000); in the data active = activation above about 50%; inconclusive = about 30% to 50%; inactive = below about 30%; further: 0% is about no effect; the text of the record puts the active cut at 80%
#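 In this qHTS format, compounds were pin-transferred onto Ca8-dye-loaded TRPML1-DL cells induced with Tet overnight, and intracellular Ca2+ fluorescence was recorded kinetically for 110 s after a 10 s baseline. A subsequent 4uM final 54-4 (EC80) addition followed by a second 110 s read served as the antagonist phase.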
# Active calls of the source: *; ? = inconclusive; . = no result given; & = joins results of further samples; [ ] = dose if it differs, or a comment.
SMILES,Six1-Eya2 inh,PINK1 modulator,D2 agonist,D2 potentiator,TRPML1 inh,TRPML1 agonist
Cc1cc(/C=C2/SC(=S)N(c3ccc([N+](=O)[O-])cc3)C2=O)c(C)n1-c1cccnc1,-9,1.6%,-1.9,-2,8,-0.2
COc1cccc(OC)c1C(=O)Nc1cc2c(cc1N1CCOCC1)n(C)c(=O)n2C,-2,3.2%,2.7,-1,-18,-0.9
COc1ccc2oc(C(=O)OCC(=O)N3CCN(S(=O)(=O)c4ccccc4)CC3)c(C)c2c1,-10,-1.6%,-2.4,12,31,0.1
O=C(O)CC1(CC(=O)N2CCOCC2)CCCC1,6,6.6%,-3.4,2,-9,0.0
COc1cccc(C2Nc3ccccc3NC3=C2C(=O)CC(C)(C)C3)c1OC (stereo not given),-2,0.2%,-6.9,-4,-1,-0.4
O=C(NNC1CC(c2ccccc2)=NN1C(=O)c1ccccc1)c1ccccc1 (stereo not given),14,-1.8%,-2.8,-6,18,0.5
O=C(NCc1ccco1)c1ccc(Cn2c(SCc3ccc(F)cc3)nc3cccnc32)cc1,.,2.4%,.,.,0,0.5
CCOc1ccc(N(CC(=O)NCC2CCCO2)S(=O)(=O)c2ccc(SC)cc2)cc1 (stereo not given),1,16%[38.3 µM],-3.4,-7,-18,1.3
C#CCOCCOCCOCCNc1nc(N2CCN(C(=O)[C@H]([C@@H](C)CC)n3cc([C@@H](N)CC(C)C)nn3)CC2)nc(N2CCN(C(=O)[C@H]([C@@H](C)CC)n3cc([C@@H](N)CC(C)C)nn3)CC2)n1,-7,1.4%,-7.8,-11,7,-0.4
Cc1ccc(-c2noc(CCC(=O)NC3CCCc4ccccc43)n2)cc1 (stereo not given),11,5.1%,-0.7,-15,21,5.1
Cc1ccc(-c2cc3nc(-c4ccccc4)cc(N4CCC5(CC4)OCCO5)n3n2)cc1,48,1.5%,-4.6,-11,64,1.8
Cc1ccc(NC(=O)CN2CC(C)SC2=NC2CCCCC2)cc1 (stereo not given),-4&-3,?,-1.6&-0.3,-11&-15,8&0,-0.5&0.3
O=C1c2ccccc2C(=O)N1C/C=C/c1ccccc1,1,1.8%,-2.2,-1,-5,1.3
O=C(NC1CC1)C1=C[C@H](C2CC2)C[C@H](OCCCCO)O1,1,1.9%,0.5,-1,-7,-0.9
CC1(CCC(=O)N2CCCC(N3CCN(c4ccc(F)cc4)CC3)C2)CC1 (stereo not given),9,0.3%,-3.2,-45,6,0.5
CCOc1cc2c3c(c1)C1(Nc4ccccc4S1)C(=O)N3C(C)(C)CC2C (stereo not given),?,?,2.5,14,-7,0.4
COc1cccc(N2CCN(C(=O)CCNS(=O)(=O)c3ccc4c(c3)c(=O)n(C)c(=O)n4C)CC2)c1,-15,-2.0%,-0.3,-5,16,0.5
COCCNC(=O)c1cc(-c2ccc(OC)c(OC)c2)on1,2,15%[38.3 µM],-2.0,-7,20,1.2
CN(Cc1ccccc1)C(=O)C1CCC(CNS(=O)(=O)c2ccc3c(c2)CCCC(=O)N3)CC1 (stereo not given),.,-0.5%,.,.,-3,-1.0
Cc1cccc2c(N=Nc3ccccc3)c(O)[nH]c12,-25,11%,-2.2,-9,1,0.3
Cc1ccccc1C(=O)N1CCN(c2ccc(NC(=O)c3ccc([N+](=O)[O-])o3)cc2)CC1,4,3.3%,10,2,62,0.0
Brc1ccc(N=C/C=C/C=C/Nc2ccc(Br)cc2)cc1,-1,.,0.5,-1,5,0.4
CCC(=O)Nc1ccc(Cl)c(NC(=O)c2ccc([N+](=O)[O-])cc2)c1,3,5.1%,-4.2,0,10,5.8
Cc1cc(C(=O)Nc2ccc3c(c2)CCC3)ccc1[N+](=O)[O-],-5,18%,-5.1,-10,-7,-0.1
CC(/C=N/n1cnnc1)=C\c1ccccc1,-2,-4.4%,-3.6,-16,-3,1.7

# Continued.
SMILES,Six1-Eya2 inh,PINK1 modulator,D2 agonist,D2 potentiator,TRPML1 inh,TRPML1 agonist
COc1ccc(CC(=O)OCC(=O)Nc2ccc3c(c2)OCO3)cc1,2,0.2%,1.0,-4,-13,-0.8
CCO[C@@H]1OC(C(=O)N2CCN(Cc3ccc4c(c3)OCO4)CC2)=C[C@H](c2csc3ccccc23)[C@H]1CCCO,-24,-0.2%,-2.4,-11,-6,0.8
Nc1ccc(N=Nc2ccccc2)c2cccnc12,-65*,-2.3%,-6.8,-14,56,3.1
CN(CC(=O)NCc1ccccn1)S(=O)(=O)c1ccc(Cl)cc1,18,1.3%,-3.5,-2,-7,-1.9
CCOC(=O)C1(CCOC)CCN(C(=O)c2sccc2C)CC1,2,0.4%,-5.1,-3,15,0.5
Cc1cc(C)c(Cn2c3ccccc3c3cnn(CC(=O)NCCC4=CCCCC4)c(=O)c32)c(C)c1,.,0.9%,.,.,22,0.3
CNC(=O)c1c(C)nc(SCC(=O)NCc2ccc(OC)cc2)c(C#N)c1-c1ccco1,-2,-1.3%,-5.1,-9,4,-1.1
Cc1cccc(C)c1NC(=S)NCCSc1ccc(Cl)cc1,5,6.7%,-3.4,-2,8,3.3
Cc1nnc(NC(=O)CN2CC(C)OC(C)C2)s1 (stereo not given),6,-1.2%,0.2,3,-7,-0.4
O=C(OCC1CC(c2ccccc2)=NO1)c1ccco1 (stereo not given),8,1.3%,-2.3,-19,-3,-0.9
C[C@H](O)[C@@H]1C(=O)N2CCc3c([nH]c4ccccc34)[C@@H]2C[C@@H]1N(C)C(=O)NC1CCCCC1,-9,0.1%,-4.9,-6,-16,-0.7
CC(=O)c1ccc(NC(=O)CCCc2nc(-c3cccc(C)c3)no2)cc1,.,7.8%,.,.,10,-0.7
CC(OC(=O)C1CCCC1)C(=O)Nc1ccc(C(N)=O)cc1 (stereo not given),1,-2.4%,3.0,-5,20,1.9
COc1ccccc1-c1cnc(C(O)c2ccc(C)c(F)c2)[nH]1 (stereo not given),-17,1.4%,1.6,-13,.,-1.2
CCOc1ccc(Nc2nc(Cc3nnc(SCC(=O)NCc4ccco4)n3CC)cs2)cc1,-10,1.7%[38.3 µM],0.0,9,-3,0.5
COc1cccc(N2C(=O)C3CCCN3C2c2ccc(F)cc2)c1 (stereo not given),1,-0.6%,-2.1,-6,-2,-1.0
CN1CCN(c2nc(-c3cc4ccccc4o3)cs2)CC1,5,1.7%,-0.5,4,27,0.6
O=C(Nc1nnc(Cc2ccccc2)s1)c1cccs1,-4,3.9%,-0.9,-6,26,0.1
C/C(=N/NC(=O)c1cccs1)c1ccco1,10,1.7%,-1.7,-2,8,-0.6
CCOc1cc(C(=O)Nc2ccc(S(=O)(=O)Nc3nnc(CC)s3)cc2)cc(OCC)c1OCC,1,1.1%,-0.9,-6,6,-0.6
NC(=O)[C@@H]1CC2(CC(c3cccc(NC(=O)[C@@H]4CCC(=O)N4)c3)=NO2)CN1C(=O)Cc1ccc([N+](=O)[O-])cc1 (stereo not given in full),4,-0.9%,-3.1,-10,-9,1.1
CCc1c(C)c2ccc(O)c(CN(C)C)c2oc1=O,0,4.9%[38.3 µM],-1.2,-15,-5,-0.3
CC(NC(N)=O)C(=O)OCC(=O)c1ccc(-c2ccccc2)cc1 (stereo not given),0,-2.8%,-0.3,-6,-2,1.1
O=C(Nc1nnc(-c2ccccc2F)s1)C1CCCO1 (stereo not given),-6,-0.3%,-1.4,2,-6,-0.3
Cc1c(C(=O)OC2CCCC2)[nH]c2c1C(=O)CC(c1ccco1)C2 (stereo not given),-6,9.6%,2.4,-3,13,1.6

# Among those listed so far, these have a Cl atom.
SMILES,Six1-Eya2 inh,PINK1 modulator,D2 agonist,D2 potentiator,TRPML1 inh,TRPML1 agonist
CCC(=O)Nc1ccc(Cl)c(NC(=O)c2ccc([N+](=O)[O-])cc2)c1,3,5.1%,-4.2,0,10,5.8
CN(CC(=O)NCc1ccccn1)S(=O)(=O)c1ccc(Cl)cc1,18,1.3%,-3.5,-2,-7,-1.9
Cc1cccc(C)c1NC(=S)NCCSc1ccc(Cl)cc1,5,6.7%,-3.4,-2,8,3.3

# Further entries follow.
SMILES,Six1-Eya2 inh,PINK1 modulator,D2 agonist,D2 potentiator,TRPML1 inh,TRPML1 agonist
O=c1[nH][nH]c(-c2ccccc2O)c1C(C[N+](=O)[O-])c1ccc(Cl)cc1Cl (stereo not given),8,3.8%,-1.9,-4,-12,0.4
COC(=O)c1cn(NC(=O)Cc2cccc(OC)c2)c(=O)c2ccccc12,-8,?,-0.2,-11,10,-0.7
O=C(Nc1nc(-c2ccccc2)c(-c2ccccc2)o1)c1ccc(F)cc1,-2,2.3%,-5.5,-21,0,-0.2
COC(=O)C1=C[C@@H](C(=O)OC)[C@@H]2C3=C(C(=O)C2(C)C)[C@H](c2ccccc2)[C@@H]2C(=O)N(C)C(=O)[C@@H]2[C@@H]3C1,4,1.6%,2.6,1,-20&-16,0.3&0.9
Cc1ccc(-c2cccc(C3CC=CC4C3C(=O)N(Cc3ccccc3)C4c3cc(C)ccc3F)c2)cc1 (stereo not given),-4,?,-2.5,-13,15&41,0.3&0.3
COCCNC(=O)CSc1nc2nc(C)cc(C)n2n1,4,0.6%[38.3 µM],-3.4,4,-9,0.5
CC(=O)c1cc(-c2ccccc2)[nH]c1N1CCCC1,5,-1.3%,-2.1,1,-15,-0.8
O=C(COc1ccc(S(=O)(=O)N2CCCC2)cc1)N1CCCCC1,-4,2.0%,-2.0,-3,23,-0.3
CCCC(=O)NC(=S)Nc1ccc(Cl)cn1,1,-0.3%,-1.3,-6,-11,2.2
O=c1c2ccccc2c(C=NCCCN2CCOCC2)c(O)n1Cc1ccccc1,-16,-1.4%,-2.2,-13,6,-0.8
COc1ccccc1C(=O)N=Nc1c(O)[nH]c2ccc([N+](=O)[O-])cc12,?,?,-4.0,-9,-18,0.9
O=C(c1cccc(F)c1)N1CCN(CC2CC3C=CC2C3)CC1 (stereo not given),-17,-2.3%,-1.2,-17,14,2.3
Cc1ccc(NC(=O)N2CCCCCC2)cc1,3,3.3%,-1.6,-12,16,0.8
Cc1ccc(C(=O)N2CCN(c3ccc(Cl)cc3)CC2)cc1,-1,-1.9%,-2.7,-3,-6,-1.2
O=S(=O)(C=C(c1ccccc1)c1ccccc1)c1ccccc1,20,2.0%,-3.1,-16,27,3.3
Cc1cc(CN2CCCC(N3CCc4ccccc4C3)C2)cc(C)c1O (stereo not given),-9,1.3%,-1.8,-6,10,1.0
Cc1ccc(-n2ncc(C(=O)N3CCN(c4cccc(C)c4C)CC3)c2C2CCNCC2)c(C)c1,.,-4.1%,.,.,-2,-0.3
CN1CCC(=NNC(=O)C(=O)NCc2ccccc2)CC1,5,.,-1.6,-2,-2,0.3

# Compound profiles (already shown).
# Results for `O=C(COc1ccc(S(=O)(=O)N2CCCC2)cc1)N1CCCCC1` : Six1-Eya2 inh: -4; PINK1 modulator: 2.0%; D2 agonist: -2.0; D2 potentiator: -3; TRPML1 inh: 23; TRPML1 agonist: -0.3
# Results for `CC(=O)c1cc(-c2ccccc2)[nH]c1N1CCCC1` : Six1-Eya2 inh: 5; PINK1 modulator: -1.3%; D2 agonist: -2.1; D2 potentiator: 1; TRPML1 inh: -15; TRPML1 agonist: -0.8
